VDR inhibitor – Inhibitors of the vitamin D receptor (VDR): qHTS; Vitamin D3 receptor (Homo sapiens), P11473; VDR-SRC2-3 peptide fluorescence polarization, 2 h; Potency, µM, inactives show max response, negative = inhibition, most hits filed as inhibitors; 400,000 tested, 0.93% active; AID 504847, 2011; active = well fitted inhibition curve with a large enough effect; inconclusive = small, poorly fitted or top-dose-only effect, or another doubt; inactive = no such curve, though single readings can be large or run the other way; note: series mostly up to about 120 µM
Target sequence (P11473 whole entry, looked up): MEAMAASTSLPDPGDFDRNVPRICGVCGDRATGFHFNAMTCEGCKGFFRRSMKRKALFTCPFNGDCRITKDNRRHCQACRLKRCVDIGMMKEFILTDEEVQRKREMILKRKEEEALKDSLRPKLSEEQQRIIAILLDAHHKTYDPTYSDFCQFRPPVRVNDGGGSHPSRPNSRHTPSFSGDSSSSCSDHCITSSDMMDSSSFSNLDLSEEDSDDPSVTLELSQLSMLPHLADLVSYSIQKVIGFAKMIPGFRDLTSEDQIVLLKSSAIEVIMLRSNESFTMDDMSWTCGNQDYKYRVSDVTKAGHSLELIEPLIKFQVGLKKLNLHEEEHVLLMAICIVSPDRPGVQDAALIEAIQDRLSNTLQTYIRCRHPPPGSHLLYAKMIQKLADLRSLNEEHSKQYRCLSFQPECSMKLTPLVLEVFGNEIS
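After 23 nl compound addition and a short centrifugation, plates sat for 2 hours at ambient temperature; polarization of fluorescence then indicated loss of VDR binding to peptide SRC2-3.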
* marks the source's active call; other numbers are inactive results; ? = inconclusive; & = joins results of further samples. % is set by controls: 0 for no effect and ±100 for the full control effect; potency is the fitted concentration of half-maximal effect. Only part of the results is shown; count on the stated rates, not on these rows.

VDR inhibitor	SMILES
-19%	CCCCC(=O)N/N=C(\C)c1cccc(NC(=O)C2CC2)c1
-4%	COc1ccc(C2C(=O)N(C3CCCCC3)CC(=O)N2C2CCCC2)cc1 (stereo not given)
21%	COc1cccc(/C=N/Nc2nc(C)cc(=O)[nH]2)c1OC
5%	O=C(c1n[nH]c(=O)c2ccccc12)N1CCN(C2c3ccccc3-c3ccccc32)CC1
8%	COc1ccc(C(=O)NCCSc2ccccc2)cc1
9%	Cc1ccc(NC(=O)CCc2nc3ccccc3s2)c(O)c1
-10%	Cc1ccc(S(=O)(=O)CCC(=O)OCC(=O)NCC(=O)Nc2c(C)cc(C)cc2C)cc1
-9%	COc1ccc([C@H]2CC(=O)C=C(c3ccc(OC(F)(F)F)cc3)C2)cc1OC

In another format: 2 of the compounds above
Structure	VDR inhibitor
Cc1ccc(NC(=O)CCc2nc3ccccc3s2)c(O)c1	9%
Cc1ccc(S(=O)(=O)CCC(=O)OCC(=O)NCC(=O)Nc2c(C)cc(C)cc2C)cc1	-10%

(listing goes on)
VDR inhibitor	SMILES
20%	Cc1cc(C)c(NC(=O)CSc2nnc(CNC(=O)c3ccccc3F)o2)c(C)c1
-3%	O=C(O)C1CC=CCC1C(=O)Nc1cccc([N+](=O)[O-])c1 (stereo not given)
-14%	Cc1ccc2nsnc2c1NC(=O)c1ccc2c(c1)OCCO2
0%	Cn1nnnc1SCC(=O)Nc1ccccn1
8%&-22%	Cc1cc2oc(=O)cc(-c3ccccc3)c2c(C)c1-c1ccc(N(C)C)cc1
-2%	Cc1cc(C)nc(Nc2nc3ccccc3o2)n1
-11%	CC(=O)Nc1ccc(NC(=O)c2cc(-c3ccc(C)c(C)c3O)n[nH]2)cc1
7%	C(=N\N1CCN(c2ccccn2)CC1)/c1cccc2ccccc12
10%	CCS(=O)(=O)N1CCc2cc(C(=O)N3CCN(c4ccccc4)CC3)ccc21
12%	CCOc1ccc(-n2c(=O)c3c4c(sc3n(CC(=O)NC(C)CC)c2=O)CCCCC4)cc1 (stereo not given)
7%	CCCC1CC(C(=O)Nc2ccccc2)C(=O)O1 (stereo not given)
14%	CCCSc1nc2c([nH]c3ccccc32)c(=O)n1C
-4%	CS(=O)(=O)N1CCN(C(=O)CCc2ccccc2)CC1
-3%	CCOc1ccc(Nc2nc3ccccc3n3c(CC)nnc23)cc1
-4%	O=S(=O)(c1ccc(F)c(Cl)c1)N1CCCC1
-2%	O=C(COC(=O)c1ccccc1O)Nc1ccc(N2CCOCC2)cc1
-12%	CCC1(c2ccc(F)cc2)NC(=O)N(CC(=O)N2c3ccccc3NC(=O)CC2C)C1=O (stereo not given)
1%	CCN(Cc1ccncc1)C(=O)[C@@H](CO)c1ccccc1
6%	COc1ccc2nc3oc(C(=O)N4CCCCC4)cc3cc2c1
-4%	Cc1ncoc1C(=O)Nc1ccc(Oc2ccccc2)cc1
-8%	Cc1ccc(C(=O)NC(=S)NNC(=O)CC#N)cc1
-13%	COc1cccc(/C=C2\SC(=S)N(N3CCOCC3)C2=O)c1OC
10%	Cc1ccc(-c2nn3c(=O)cc(CN4CCN(C(=O)Nc5cc(Cl)ccc5C)CC4)nc3s2)cc1
13%	CCC(C)c1ccc(NC(=S)NCc2cccs2)cc1 (stereo not given)
?	COc1ccc(OC)c(CN2CCC(C(=O)N3CCOCC3)CC2)c1
5%	CSc1ccc(CC2C(=O)Nc3ccccc32)cc1 (stereo not given)
2%	Cc1ccc(CC(CC(=O)O)C(=O)NC2CCCCC2)cc1 (stereo not given)
6%	CC1Cc2ccccc2N1C(=O)CSc1nnc(-c2ccccc2Cl)o1 (stereo not given)
-3%	C/C(=C\CCC1(C)C2CC3C(C2)C31C)C(=O)O (stereo not given)
-5%	O=C(NCc1ccco1)C1CC(=O)N(c2ccc(F)cc2)C1 (stereo not given)
4%	O=C(NCc1ccc2c(c1)CCN2C(=O)c1ccccc1)Nc1cccc(C(F)(F)F)c1
5%	CCC(CC)C(=O)Nc1nnc(SCC(=O)NC2CC2)s1

Exported as comma-separated lines: entries from further up
SMILES,VDR inhibitor
CCC1(c2ccc(F)cc2)NC(=O)N(CC(=O)N2c3ccccc3NC(=O)CC2C)C1=O (stereo not given),-12%
CCN(Cc1ccncc1)C(=O)[C@@H](CO)c1ccccc1,1%
COc1ccc2nc3oc(C(=O)N4CCCCC4)cc3cc2c1,6%
Cc1ncoc1C(=O)Nc1ccc(Oc2ccccc2)cc1,-4%
Cc1ccc(C(=O)NC(=S)NNC(=O)CC#N)cc1,-8%
COc1cccc(/C=C2\SC(=S)N(N3CCOCC3)C2=O)c1OC,-13%
Cc1ccc(-c2nn3c(=O)cc(CN4CCN(C(=O)Nc5cc(Cl)ccc5C)CC4)nc3s2)cc1,10%
CCC(C)c1ccc(NC(=S)NCc2cccs2)cc1 (stereo not given),13%
COc1ccc(OC)c(CN2CCC(C(=O)N3CCOCC3)CC2)c1,?
CSc1ccc(CC2C(=O)Nc3ccccc32)cc1 (stereo not given),5%
Cc1ccc(CC(CC(=O)O)C(=O)NC2CCCCC2)cc1 (stereo not given),2%
CC1Cc2ccccc2N1C(=O)CSc1nnc(-c2ccccc2Cl)o1 (stereo not given),6%
C/C(=C\CCC1(C)C2CC3C(C2)C31C)C(=O)O (stereo not given),-3%
O=C(NCc1ccco1)C1CC(=O)N(c2ccc(F)cc2)C1 (stereo not given),-5%
O=C(NCc1ccc2c(c1)CCN2C(=O)c1ccccc1)Nc1cccc(C(F)(F)F)c1,4%
CCC(CC)C(=O)Nc1nnc(SCC(=O)NC2CC2)s1,5%

Continuation.
VDR inhibitor	SMILES
-2%	CCOC(=O)c1cc2c(nc1NC(=S)NCc1ccccc1)CCCC2
-13%	Cc1sc2ncn3ncnc3c2c1C
-11%	CCN1C(=O)/C(=C2/C=CC=CN2C)OC1=S
9%	COc1ccc(CN(C)CC2CCCN(CCc3ccc(Cl)cc3)C2)cc1OC (stereo not given)
-12%	Cc1ccc(-c2csc(NC(CO)c3nc4ccccc4n3CCOCCO)n2)cc1 (stereo not given)
14%	O=C(c1ccc(S(=O)(=O)Nc2ccc(F)cc2)cc1)N1CCN(c2ccccn2)CC1
17%	Cc1ccc(S(=O)(=O)N2CCN(S(=O)(=O)N3CCOCC3)CC2)cc1
10%	Cc1cs/c(=N/C(=S)Nc2ccccc2)n1C
-6%	CC(C)C(C(=O)NC1CCCC1)N(Cc1ccco1)C(=O)CNS(=O)(=O)c1ccccc1 (stereo not given)
-10%&2%	CN(C(=O)CN1C(=O)CCSc2ccc(S(=O)(=O)N3CCCC3)cc21)c1ccccc1
4%	COc1ccc(NC(=O)c2cnc[nH]2)cc1
-2%	COc1ccc(CC(=O)Nc2nc(-c3ccc(F)c(F)c3)cs2)cc1OC
-1%	CCOC(=O)c1cnc2ccc(C(=O)OC)cc2c1Nc1cccc(C(=O)O)c1
15%	COc1ccc(C(C)(C)C)cc1NC(=O)COc1ccc(-c2nnco2)cc1
3%	Cc1cccc(NC(=S)NC(=O)C(c2ccccc2)c2ccccc2)n1
-12%	Cc1ccc(NC(=O)[C@H](Cc2ccccc2)NC(=O)C2CCNCC2)cc1
-29%	CC(C)N(C(=O)Cn1cc(SCC(=O)NCC2CCCO2)c2ccccc21)C(C)C (stereo not given)
-25%	COc1ccccc1OCCCCCCN1CCOCC1
-3%	O=C(NCc1ccccc1)C1=C[C@H](c2ccccc2)C[C@H](OCc2ccc(CO)cc2)O1
4%	Brc1ccc(-c2csc(N/N=C/c3ccc4c(c3)OCO4)n2)cc1
-19%	O=C(O)C1CCCCC1C(=O)Nc1ccccc1F (stereo not given)
-2%	Cc1ccc(S(=O)(=O)Nc2cccc(/C=C/C(=O)O)c2)cc1
0%	CC(=O)CSc1nnc(-c2ccncc2)n1C
-2%	CCN(c1ccccc1)S(=O)(=O)c1cc(C(=O)Oc2ccc3c(C)cc(=O)oc3c2)ccc1C
20%	C/C(CC(C)C)=N\Nc1ccc(S(N)(=O)=O)cc1[N+](=O)[O-]
1%	COc1cccc(/C=N/NC(N)=S)c1OS(=O)(=O)c1ccccc1
-22%	CS(=O)(=O)Oc1ccc2c(c1)O/C(=C\c1cccnc1)C2=O
9%	Cc1ccnc(NC(=O)C2CCN(S(=O)(=O)c3cccc4nsnc34)CC2)c1
-11%	CCC(=O)NC1Cc2ccccc2C(c2ccccc2)C1 (stereo not given)
18%	CC(C)(C)C(=O)Nc1ccc(C(=O)N/N=C/c2ccccc2OC(=O)c2ccccc2)cc1
19%	CC(C)(C)NC(=O)CCCCCCCC(=O)NC(C)(C)C
-20%	CCN(CC(=O)Nc1cc(Cl)ccc1C)C(=O)CCS(=O)(=O)c1ccc(C)cc1
1%	CCCCCCCCOc1ccc(C2OC34CCCCC3C(C#N)(C#N)C2(C#N)C(=N)O4)cc1 (stereo not given)
-1%	O=C(NCC1CCCO1)c1ccc2c(c1)N(Cc1ccc(F)cc1Cl)C(=O)CS2 (stereo not given)
-11%	O=C(O)CCC(=O)N(Cc1ccco1)c1nc(-c2ccccc2)cs1
12%	FC(F)(F)C1=CC(c2ccc(Br)cc2)=NCCN1
-1%	C(=C\c1ccccc1)/CSc1nc2ncccc2[nH]1
-4%	O=C(Nc1ccc(S(=O)(=O)N2CCCCCC2)cc1)c1c(F)cccc1F
?	Nc1nnc(SC2CCCC2)s1
?	COc1ccc(C(=O)OCc2cc(C)ccc2C)cc1S(=O)(=O)N1CCCC1
-3%	COc1cc(C(=S)N2CCCC2)cc(OC)c1OC
-17%	COc1ccc(CCC(=O)OCC(=O)Nc2ccc3[nH]c(=O)[nH]c3c2)cc1
-21%	COc1ccc(CCNC(=O)c2ccc3c(c2)N(Cc2cc(C)ccc2C)C(=O)c2ccccc2S3=O)cc1OC (stereo not given)
-7%	O=C(/C=C/c1ccc(Cl)cc1Cl)c1ccc[nH]1
-11%	CCOc1cc(C)c(Cl)cc1S(=O)(=O)n1cnc2ccccc21
12%	CS(=O)(=O)N1CCc2cc(-c3csc(NC(=O)C(c4ccccc4)c4ccccc4)n3)ccc21
-4%	COc1cc(Cl)c(NS(=O)(=O)c2ccc3[nH]c(=O)ccc3c2)c(OC)c1
0%	COc1ccc(S(=O)(=O)N(C)CC(=O)N2CCOCC2)cc1
6%	COc1ccc(NC(=O)C2CC(=O)NC(Nc3cccc(C)c3)=N2)cc1 (stereo not given)
3%	CC(C(=O)Nc1cccc([N+](=O)[O-])c1)[n+]1ccccc1 (stereo not given)
56µM*	C/C(=C(/CCO)SSCC1CCCO1)N(C=O)Cc1cnc(C)nc1N (stereo not given)
-1%	CC(=O)c1cc(-c2ccc(F)cc2)n(CC(=O)NC(C)c2ccccc2)c1C (stereo not given)
-12%	CCOC(=O)c1c(C)n(-c2ccc(OC)cc2)c2ccc(OC(=O)COc3ccccc3)cc12
21%	Cc1nc(S(=O)(=O)N2CCN(c3cccc(Cl)c3)CC2)cn1C
-13%	O=C(CNS(=O)(=O)c1cccc(C(F)(F)F)c1)NC1CCCCCC1
16%	CC(=O)c1cc(C#N)c(SCc2ccncc2)nc1C

Next section:
VDR inhibitor	SMILES
1%	CCN1CCN(c2ccc(NC(=O)c3cccc(S(=O)(=O)N4CCCC4)c3)cc2)CC1
-1%	Cc1ccccc1C(=O)NCC(=O)Nc1ccc(C)c(S(=O)(=O)N2CCCCCC2)c1
-8%	COc1ccc(C(=O)N2CCN(c3ccc([N+](=O)[O-])c(-n4nc(C)cc4C)c3)CC2)cc1
27%	CCN(C(=O)COC(=O)c1oc2ccccc2c1C)c1c(N)n(Cc2ccccc2)c(=O)[nH]c1=O
4%	Nc1nc(CN2CCCCC2)cs1
-8%	N=C(N)SCc1ncccc1O
4%	N[C@](CC1c2ccccc2Oc2ccccc21)(C(=O)O)[C@@H]1C[C@@H]1C(=O)O
9%	Cc1ccc2nc(C)c(C(=O)N/N=C/c3cccs3)n2c1
13%	Cc1ccc(S(=O)(=O)c2cn(Cc3cccc(C)c3)c3cc4c(cc3c2=O)OCO4)cc1
-2%	Cc1cc(CNC(=O)[C@H](C)[C@@H]2C[C@@]2(C)[C@@H](NC(=O)OCc2ccccc2)c2ccccc2)nn1C
8%	CC(=O)N1CCC2(CCCN(C(=O)Nc3cccc(C#N)c3)C2)CC1
?	COc1ccc(NS(=O)(=O)c2ccc(NC(=O)c3ccccc3)cc2)nn1
-4%	COc1ccccc1OCC(=O)Nc1ccc(S(=O)(=O)N2CCN(C)CC2)cc1
0%	COc1ccc(C(=O)n2nc(-c3ccccc3)nc2SC)cc1
-12%	O=C(CN1CCOCC1)Nc1ccc(Oc2ccc(NC(=O)CN3CCOCC3)cc2)cc1
3%	Cc1cccn2c(=O)c3cc(C(=O)NCc4ccccc4)c(=N)n(CCCN4CCOCC4)c3nc12
?	O=Nc1nc2ncccn2c1-c1ccccc1
-18%	COc1ccc(NCc2cc3cc(OC)ccc3[nH]c2=O)cc1
-14%	COc1ccccc1-n1cc(C(=O)NCC(=O)N2CCN(c3ccccn3)CC2)c2ccccc2c1=O
?	COc1cc(/C=N\Nc2nc(-c3ccc(C)cc3)c(NC(C)=O)s2)ccc1O
-16%	CC(=O)NC12CC3CC(C)(C1)CC(NC(C)=O)(C3)C2
12%	CCOC(=O)c1c(=O)n(O)c2ccc(OC)cc2[n+]1[O-]
17%	CN1CCCN(C(=O)CC2(CC(=O)O)CCCCC2)CC1
5%	COc1ccc(CN(C)S(=O)(=O)c2nnc(NC(=O)C(C)C)s2)cc1OC
-12%	Cc1ccn2cc(CSc3ccccc3N)nc2c1
9%	Cc1noc(C)c1COC(=O)c1cccc(N(C)C)c1
10%	CC(C)(C)OC(=O)N1CCC(c2c(C(=O)N3CCN(c4ncccn4)CC3)cnn2-c2ccc(F)cc2)CC1
0%	Clc1ccccc1CN1CCN(/N=C/c2ccncc2)CC1
-2%	O=[N+]([O-])c1cccc(-c2cc3ccccc3[nH]2)c1
13%	COc1ccccc1/C=N/NC(=O)c1c(-c2ccccc2)noc1C
5%	CCOc1ccc(C(=O)N(Cc2cc(OC)c(OC)c(OC)c2)c2ccccn2)cc1
